RN4220 kill = S. aureus RN4220 growth inhibition; OD600, 16 h; inhibition, % (no concentration beside the values); 330,000 tested, 0.33% active;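 active means z-score of -3 or lower and OD600 up to 0.18 on both plates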;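 further: plate controls were untreated cells for no effect and reference antibiotic for full effect; stock transfer was 100 nL into about 80 µL; one replicate is shown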
PrP 5UTR inh = suppresses PrP 5' UTR mRNA reporter expression. cell-based PrP 5' UTR mRNA reporter, plate reader. inhibition, % (test concentration not listed). 340,000 tested, 0.35% active. AID 488862;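 active means every replicate at 50% or more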;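 further: 0 = median of the neutral control wells; tested in H4 reporter cells; numbers are from one replicate; inactives centre near -14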
BJeLR lethal = BJeLR cell viability loss | BJeLR (HRASV12) viability, CellTiter-Glo ATP luminescence, 48 h; reference of the scale not given here | inhibition, % (concentration not given with the values) | 300,000 tested, 0.17% active;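 active means replicate mean above 50%; inconclusive means above 50% but judged a plate artefact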;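 further: 50 nL library stock added to about 25 µL; numbers are from one replicate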
Mtb hypoxia inh = reduces hypoxia-regulated biosensor signal in M. tuberculosis; M. tuberculosis hypoxia-regulated fluorescent reporter, fluorescence; fluorescence inhibition, % (test concentration not listed); 300,000 tested, 0.1% active; AID 1159583;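 active means 35 to 45% if threefold the growth effect, above 45% if 1.5-fold the growth effect; inactive means the rest, general growth blockers included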;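 further: wells of about 50 µL received 100 nL stock; 0% = vehicle wells and 100% = reference inhibitor wells; whole bacteria with a GFP reporter of the hypoxia response; strong numbers were not always called active; many hits fall short of the cut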
Autofluor counter = counter-screen for toxin protease inhibitors: compound fluorescence. compound autofluorescence counterscreen, microsphere flow cytometry; active compounds read high. fluorescence intensity (test concentration not listed). 360,000 tested, 3.1% active;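 active means at least 3 SD above the mean of all compounds, about 16000 in these data; inconclusive means too few beads counted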;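 further: 100 nL of 1 mM stock went into each well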
ugtP null kill = compounds lethal to S. aureus RN4220 ugtP deletion mutant | OD600 growth, 16 h; some inactives read as strong as hits | growth inhibition, % (concentration not given with the values) | 330,000 tested, 0.54% active;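 active means z-score under -3 and OD600 up to 0.15 on both plates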;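 further: plate controls were untreated wells for no effect and antibiotic for full effect; wells of about 80 µL received 100 nL stock; the first replicate is given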
Mtb hypoxia inh growth = second read-out of Mtb hypoxia inh, no call of its own (marks repeat the call); growth inhibition, %; measured here: M. tuberculosis growth (absorbance);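 0% = vehicle and 100% = reference antibiotic; read after six days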
Active calls of the source: *; ? = inconclusive; / = not tested or not shown.

Structure | RN4220 kill | PrP 5UTR inh | ugtP null kill | Mtb hypoxia inh | Mtb hypoxia inh growth | Autofluor counter | BJeLR lethal
COc1ccc(N2C(=O)C3C(C2=O)C3(c2ccccc2)c2ccccc2)cc1 (configuration not stated) | 3.6 | -4 | -3 | -9 | 0 | 5920 | 10
O=C1CN(C(=O)COC(=O)CCCOc2ccccc2)c2ccccc2N1 | 4.2 | -13 | 5 | 9 | 7 | 3896 | 3
CS(=O)(=O)N(CC(=O)NCc1ccccc1)c1ccc(Cl)cc1 | 0.3 | -18 | 4 | -10 | -15 | 3738 | -6
COC(=O)c1ccc(NC(=O)c2ccccc2NS(=O)(=O)c2ccccc2)cc1 | 48 | -43 | 41 | 14 | 5 | 20206* | 14
CC1(C)SC2C(NC(=O)C(N)c3ccc(O)cc3)C(=O)N2C1C(=O)O (configuration not stated) | 24 | / | 61 | 4 | 2 | / | /
COc1cccc(OC)c1C(=O)Nc1ccc(N2CCN(C(=O)c3ccco3)CC2)cc1 | 2.2 | -21 | 5 | 11 | 3 | 3603 | 3
COc1cc(C(=O)OCC(=O)Nc2sccc2C(N)=O)cc(OC)c1OC | 1.7 | -44 | -5 | 16 | 14 | 4453 | 7
COc1cccc(CNC(=O)CCn2ccc3cc(S(=O)(=O)N4CCC(C)CC4)ccc32)c1 | 3.3 | -2 | 0 | 8 | 2 | 5410 | -2
O=S1(=O)N=C2CCCN2C(c2ccc(F)cc2)N1 (configuration not stated) | 3.2 | -9 | -3 | 4 | 5 | 9779 | 3
O=C(CNC(=O)C(c1ccccc1)c1ccccc1)NN=Cc1ccc2c(c1)OCO2 | 3.2 | / | 7 | 3 | 1 | / | /
O=C1C2C(C3CC3)N3C(=O)CN(CC4CC4)C(=O)[C@@]3(Cc3ccccc3)C2C(=O)N1c1ccccc1 (some centres not stated) | 9.2 | / | 4 | 20 | 9 | / | /
CN(Cc1ccccc1)C(=S)NC(=O)c1cccs1 | 2.1 | -11 | -4 | 11 | -1 | 6303 | 9
COc1ccc(O)c(C=NNS(=O)(=O)c2ccc(C)cc2)c1 | 8.7 | / | 4 | 3 | -4 | / | /
Cc1ccccc1CSc1nnc(NC(=O)C2COc3ccccc3O2)s1 (configuration not stated) | 7.6 | -4 | -7 | -1 | 2 | 20631* | 2
Cc1ccc(C)c(S(=O)(=O)Nc2ccc(C(=O)NCC(c3ccco3)N3CCCCC3)cc2)c1 (configuration not stated) | -9.0 | -4 | 0 | 6 | 6 | 5117 | -1
CC(C)=CCC/C(C)=C/CCC(C)=NO | 12 | / | 5 | -1 | 4 | / | /
O=C(Cc1ccccc1F)Nc1nc2ccccc2[nH]1 | 7.9 | -29 | 4 | -3 | 7 | 4157 | 11
Cc1ccc(C=Nn2c(-c3cccnc3)n[nH]c2=S)o1 | 7.1 | / | 11 | 7 | 4 | / | /
Cc1cc(O)ccc1NC1=CC(=O)CC(C)(C)C1 | 5.5 | -9 | 8 | 4 | 12 | 2145 | 4
COc1ccc(CC(=O)Nc2cccc3ncccc23)cc1OC | 3.0 | -9 | 6 | 4 | -1 | 3486 | -10
CC(NC(=O)COc1ccc(/C=N/NC(=O)CO)cc1)c1ccccc1 (configuration not stated) | / | -18 | / | / | / | 3373 | -4
COc1ccc(CCC(=O)Nc2ccc3c(c2)OCO3)cc1 | 2.1 | -24 | -1 | 11 | 0 | 3907 | 2
CC(C)C1Cc2[nH]c(=O)c(C(=O)O)cc2CO1 (configuration not stated) | 3.9 | -4 | 3 | 5 | 3 | 7935 | 6
CCOC(=O)c1c(NC(=O)COC(=O)CCCOc2ccc(OC)cc2)sc(C(=O)NC)c1C | 0.4 | -18 | 7 | 6 | 4 | ? | -4
Cc1ncc(CN2CCN(CCC(C)C)C(CCO)C2)s1 (configuration not stated) | 3.3 | -28 | 3 | 8 | 0 | 2571 | -9
O=c1nc(N2CCCC2)nc(N2CCCC2)[nH]1 | 3.3 | -12 | 5 | -3 | 9 | 4090 | 0
Cc1cc(C)n(C(=O)c2sc3cc(F)ccc3c2Cl)n1 | 8.9 | / | 7 | 7 | 1 | / | 0
CC(C)c1ccc(NC2CCCN(C(=O)c3ccc4nccnc4c3)C2)cc1 (configuration not stated) | / | 4 | / | / | / | 3956 | 5
C=CCOc1ccc(C=NNC(=O)CN(c2cc(Cl)ccc2OC)S(=O)(=O)c2ccc(C)c([N+](=O)[O-])c2)cc1 | -7.0 | / | 5 | 4 | -4 | / | /
CC(C)(C)c1ccc(NC(=O)CN2C(=O)NC(C)(C3CC3)C2=O)cc1 (configuration not stated) | 3.0 | -21 | 3 | 9 | 1 | / | /

12 entries from above, ordered by count of non-hydrogen atoms, largest number first.
Structure | RN4220 kill | PrP 5UTR inh | ugtP null kill | Mtb hypoxia inh | Mtb hypoxia inh growth | Autofluor counter | BJeLR lethal
C=CCOc1ccc(C=NNC(=O)CN(c2cc(Cl)ccc2OC)S(=O)(=O)c2ccc(C)c([N+](=O)[O-])c2)cc1 | -7.0 | / | 5 | 4 | -4 | / | /
Cc1ccc(C)c(S(=O)(=O)Nc2ccc(C(=O)NCC(c3ccco3)N3CCCCC3)cc2)c1 (configuration not stated) | -9.0 | -4 | 0 | 6 | 6 | 5117 | -1
COc1cccc(CNC(=O)CCn2ccc3cc(S(=O)(=O)N4CCC(C)CC4)ccc32)c1 | 3.3 | -2 | 0 | 8 | 2 | 5410 | -2
COC(=O)c1ccc(NC(=O)c2ccccc2NS(=O)(=O)c2ccccc2)cc1 | 48 | -43 | 41 | 14 | 5 | 20206* | 14
CC(C)c1ccc(NC2CCCN(C(=O)c3ccc4nccnc4c3)C2)cc1 (configuration not stated) | / | 4 | / | / | / | 3956 | 5
COc1cc(C(=O)OCC(=O)Nc2sccc2C(N)=O)cc(OC)c1OC | 1.7 | -44 | -5 | 16 | 14 | 4453 | 7
CC(C)(C)c1ccc(NC(=O)CN2C(=O)NC(C)(C3CC3)C2=O)cc1 (configuration not stated) | 3.0 | -21 | 3 | 9 | 1 | / | /
COc1ccc(CC(=O)Nc2cccc3ncccc23)cc1OC | 3.0 | -9 | 6 | 4 | -1 | 3486 | -10
COc1ccc(CCC(=O)Nc2ccc3c(c2)OCO3)cc1 | 2.1 | -24 | -1 | 11 | 0 | 3907 | 2
Cc1cc(C)n(C(=O)c2sc3cc(F)ccc3c2Cl)n1 | 8.9 | / | 7 | 7 | 1 | / | 0
Cc1cc(O)ccc1NC1=CC(=O)CC(C)(C)C1 | 5.5 | -9 | 8 | 4 | 12 | 2145 | 4
CC(C)C1Cc2[nH]c(=O)c(C(=O)O)cc2CO1 (configuration not stated) | 3.9 | -4 | 3 | 5 | 3 | 7935 | 6

The results go on:
Structure | RN4220 kill | PrP 5UTR inh | ugtP null kill | Mtb hypoxia inh | Mtb hypoxia inh growth | Autofluor counter | BJeLR lethal
COc1cccc(N/C(SC)=C(/C#N)C(N)=O)c1 | 1.9 | -18 | 3 | 2 | 2 | 23601* | 5
CCN(CC)c1ccc2cc(C(C)=O)c(=O)oc2c1 | 1.3 | -31 | -6 | / | / | 4680 | 4
CC(=NNC=O)c1ccncc1 | -0.2 | / | 3 | 12 | 1 | / | /
CSCCC(NC(=O)c1ccccc1)C(=O)NN=C(C)c1ccccc1 (configuration not stated) | 5.8 | / | -2 | 7 | 3 | / | /
COc1cccc(CNC(=S)Nc2cccc(Cl)c2C)c1 | 2.7 | -5 | -2 | 5 | 0 | 3526 | -9
COc1ccc(C(C(=O)NC2CCCC2)N(C(=O)c2snc(-c3ccc(F)cc3)c2N)c2ccc(F)cc2)cc1 (configuration not stated) | -2.3 | -1 | -1 | 2 | 3 | 24202* | 6
COc1ccc2c(c1)Cc1sc(NC(=O)c3cccnc3)nc1-2 | 1.9 | -24 | -7 | 5 | -1 | 4475 | 12
Nc1c2c(nc3sc4c(c13)CCCC4)CCCC2 | 8.4 | -71 | 6 | / | / | 2392 | -3
CCCc1cc(-c2nc(-c3ccc(C)cc3)cs2)ccn1 | 11 | -27 | 17 | / | / | 2852 | 8
COc1ccc(OC)c(/C=N\NC(=O)CC(=O)NCCc2ccccc2)c1 | / | -25 | / | / | / | 3190 | -2
Cc1noc(C)c1CC(=O)NC1CC(C)(C)Cc2c1cnn2-c1ccccc1 (configuration not stated) | 1.6 | -10 | 13 | 13 | 10 | 6251 | -7
COC(=O)c1cc(S(=O)(=O)N(C)C2CCCCC2)cn1C | -1.1 | -5 | 1 | 6 | 8 | 5405 | 0
Cc1csc2ncc(C(=O)NCc3ccc4c(c3)OCO4)c(=O)n12 | 6.5 | / | -2 | -3 | -1 | / | -12
Cc1cc2c(cc1S(=O)(=O)NCc1ccccc1Cl)OCCN2C | 8.9 | -9 | 5 | 5 | -1 | 5320 | 14
COc1ccc(C(=O)Nc2nc3ccccc3s2)c(OC)c1 | / | 95* | / | / | / | 3603 | 53*
COc1ccc(C(=O)NNC(=O)CSc2nnc(COc3ccc4ccccc4c3)n2C)cc1 | 1.0 | 8 | 1 | 6 | 0 | 15630 | 3
CCOc1cc(/C=C(/C#N)C(=O)Nc2ccc(OC)cc2)ccc1OCc1ccc(C(=O)O)cc1 | 1.9 | -1 | -9 | 3 | -6 | 3071 | -1
CCN(CC(=O)NC1CCS(=O)(=O)C1)S(=O)(=O)c1cc(C)ccc1C (configuration not stated) | 3.2 | -5 | 3 | 3 | -2 | / | 10
Cc1cc(NC(=O)C2CC(c3ccc(F)cc3)=NO2)n(-c2ccccc2)n1 (configuration not stated) | 8.0 | -9 | 3 | 1 | -1 | 5736 | 8
NC(=O)c1ccc(N2CCCC2)nc1 | 4.9 | -6 | 5 | 12 | 5 | 3531 | /
COc1cccc(Oc2coc3c(CN4CCOCC4)c(O)ccc3c2=O)c1 | 4.1 | -1 | -4 | 2 | 12 | 2481 | 0
CCC(=O)Nc1ccc(N2CCOCC2)c(S(=O)(=O)Nc2ccc(OC)cc2)c1 | 0.8 | -14 | 4 | -11 | 8 | 4539 | -5
O=C(/C=C/c1ccc2c(c1)OCCCO2)c1ccc2ccccc2c1O | -8.1 | -26 | 22 | 8 | 7 | 2023 | -15
COc1ccc(NS(=O)(=O)c2ccc(Cl)c(NC(=O)c3ccccc3F)c2)cc1 | 4.8 | -7 | 23 | 11 | 7 | 3539 | /
COc1ccc(NC(=O)CN(c2ccccc2)S(=O)(=O)c2ccccc2)c(OC)c1 | 3.5 | -20 | -8 | -6 | 4 | 3420 | -4
COCCNC(C)C(=O)Nc1ccc(Br)cc1 (configuration not stated) | -3.8 | 6 | -7 | 0 | 3 | 9855 | 10
COC(=O)CN1C(=O)C(O)(CC(=O)c2ccc(C)cc2)c2cc(Br)ccc21 (configuration not stated) | 2.6 | -13 | 2 | / | / | 5207 | 16
O=C1c2ccccc2C(=O)N1c1cccc(-c2nc3ccccc3o2)c1 | -7.0 | -17 | -3 | 13 | 1 | 2822 | -6
CCN(CC)S(=O)(=O)c1ccc(NC2c3ccccc3C(=O)N2Cc2ccc3c(c2)OCO3)cc1 (configuration not stated) | -4.9 | -2 | -4 | -1 | 13 | 5859 | -6
CCNC(=O)c1c(O)c2ccccc2[nH]c1=O | 7.5 | -53 | 3 | 0 | 5 | 6496 | -11

Remaining list, next part.
Structure | RN4220 kill | PrP 5UTR inh | ugtP null kill | Mtb hypoxia inh | Mtb hypoxia inh growth | Autofluor counter | BJeLR lethal
COc1cccc(N2CCN(C(=S)Nc3ccccc3)CC2)c1 | 3.9 | -21 | 4 | 11 | 1 | 9592 | -9
O=C1CC2(CCN(C(=O)c3cccc([N+](=O)[O-])c3)CC2)Oc2ccccc21 | 1.9 | -15 | 2 | -3 | -1 | 5208 | -4
CC(C)OCCCNC(=O)c1cccc2c1C(=O)c1ccc(Cl)cc1S2(=O)=O | 8.1 | -21 | 0 | 17 | 7 | 3603 | /
O=C(NCCN1CCOCC1)c1ccc(CS(=O)(=O)c2c(Cl)cccc2Cl)o1 | 0.2 | 6 | -1 | / | / | 5982 | /
O=C(c1ccc2c3c(cccc13)CC2)C1CCCN(CC2CC2)C1 (configuration not stated) | 0.8 | -12 | 12 | -1 | 5 | 2567 | 4
O=C(CSc1nc(C2CCCCC2)nc2ccccc12)N1CCCC1 | / | -5 | / | / | / | 5833 | -18

Screening results deposited in PubChem by several laboratories.

Not a hit list; about 4% have a hit in one of these screens.
